DUX4 inh: DUX4-mediated transcription inhibition | 293T-iDUX4 ZSCAN4-Gaussia luciferase reporter, 24 h; active compounds read low | activity change, negative = inhibition, % (test concentration not listed) | AID 1224904 | 0.8% of 37,000 active;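 active = -10% or lower and over 25 points stronger than a control reporter; inconclusive = -10% or lower with a smaller gap; inactive = above -10%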;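 also: 0% = median of neutral control wells and -100% = median of positive control wells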
DUX4 inh difference: second read-out of DUX4 inh, no call of its own (marks repeat the call); Gaussia minus Italica difference, %; measured here: selective DUX4 reporter inhibition;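 worked out from the two reporters; negative = selective loss of the DUX4 reporter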
DUX4 inh control: also measured in DUX4 inh; calls as there; activity change, negative = inhibition, %; measured here: Italica tet-on control reporter;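 0 = neutral control and -100 = positive control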
Starred values were filed as active, the others as inactive; ? = inconclusive; . = not tested or not shown. The list is partial; count on the stated rates, not on these rows.

SMILES | DUX4 inh | DUX4 inh difference | DUX4 inh control
CCCNC(=O)N1CC2(CN(C(=O)c3cccnc3)C2)c2c([nH]c3cc(OC)ccc23)[C@@H]1CO | 13.8 | 2.0 | 11.8
O=C(C[C@@H]1C[C@H]2c3cc(NC(=O)C4CCC4)ccc3O[C@H]2[C@H](CO)O1)NCc1ccccc1F | ? | . | .
O=C(NCCc1ccncc1)[C@@H]1[C@@H](CO)[C@@H]2Cn3c(cccc3=O)[C@H]1N2Cc1ccccc1F | 6.0 | 2.6 | 3.5
COc1cccc(NC(=O)N[C@@H]2CC[C@H](CC(=O)NCc3ccccn3)O[C@@H]2CO)c1 | 3.5 | 3.5 | 0.0
Cc1ccccc1CN(C)C[C@@H]1OCc2cn(nn2)CCCC(=O)N([C@H](C)CO)C[C@@H]1C | 2.6 | 3.6 | -1.0
COc1ccc2c3c([nH]c2c1)[C@@H](CO)N(C(=O)Nc1ccc(F)cc1)CC31CN(S(C)(=O)=O)C1 | 0.2 | -5.4 | 5.7
O=C(Nc1ccc(F)cc1)N1CCCCN2[C@H](CO)[C@H](c3ccc(-c4cccc(F)c4)cc3)[C@@H]2C1 | ? | . | .
CO[C@@H]1CC[C@@H]2CCOc3ccc(C#N)cc3C(=O)N(C)C[C@@H](c3ccccc3)CC(=O)N(C)C[C@H]1O2 | -2.4 | -3.6 | 1.3
COc1ccccc1-c1ccc([C@@H]2[C@H]3CN(C(=O)CN4CCOCC4)CCCCN3[C@H]2CO)cc1 | 14.1 | 13.5 | 0.6
N#C[C@H]1[C@H](c2ccc(C3=CCCC3)cc2)[C@@H](CO)N1C(=O)c1ccccn1 | 1.8 | 4.6 | -2.8
CC(=O)N1[C@@H]2Cn3c(ccc(-c4ccccc4)c3=O)[C@H]1[C@@H](C(=O)Nc1ccccc1)[C@@H]2CO | -5.4 | -4.5 | -1.0
C[C@@H]1CN([C@@H](C)CO)S(=O)(=O)c2ccc(-c3cccc(F)c3)cc2O[C@H]1CN(C)C(=O)Nc1cc(F)ccc1F | 1.2 | 2.8 | -1.6
COc1cccc(S(=O)(=O)Nc2ccc3c(c2)C(=O)N(C)[C@@H]2CC[C@@H](CC(=O)O)O[C@@H]2CO3)c1 | -1.0 | -3.8 | 2.7
C[C@H](CO)N1C[C@H](C)[C@@H](CN(C)C(=O)c2ccccc2)OCc2ccccc2-c2ccccc2C1=O | 13.8 | 2.8 | 11.0
O=C(C[C@@H]1C=C[C@@H](NC(=O)c2cccnc2)[C@@H](CO)O1)NCCN1CCCCC1 | -0.2 | -3.1 | 2.9
O=C(c1ccncc1)N1CC2(C1)[C@H](c1ccccc1)[C@H](CO)N2CC1CCCC1 | -5.3 | -7.4 | 2.2
COc1cccc(-c2cnc3c(c2)C(=O)N([C@H](C)CO)C[C@H](C)[C@H](CN(C)C(=O)Nc2ccccc2F)O3)c1 | 5.4 | 3.2 | 2.2
COc1ccccc1S(=O)(=O)N1CC[C@@H]2[C@H]1c1cc(-c3ccc(C#N)cc3)ccc1N(C)[C@H]2CO | -8.2 | 9.9 | -18.1
CCCNC(=O)N1[C@@H](C#N)[C@H](c2ccc(C#Cc3cccc(F)c3)cc2)[C@@H]1CO | -0.4 | 1.4 | -1.9
CCC(=O)N1CC2(C1)CN(C(=O)NC1CCCC1)[C@H](CO)c1c2c2ccc(OC)cc2n1C | 9.5 | 8.6 | 0.9
COc1ccc2c3c([nH]c2c1)[C@@H](CO)N(C(=O)C1CCOCC1)CC31CN(C(=O)NC(C)C)C1 | 4.2 | 1.3 | 2.9
COCC(=O)Nc1ccc2c(c1)[C@@H]1C[C@@H](CC(=O)NCc3cccnc3)O[C@H](CO)[C@@H]1O2 | -1.7 | -5.4 | 3.8
COC(=O)C[C@@H]1CC[C@H]2[C@@H](COc3ccc(NC(=O)Cc4cccs4)cc3C(=O)N2C)O1 | -2.4 | -5.7 | 3.3
C/C=C/c1ccc([C@@H]2[C@H](CO)N[C@H]2CN(C(=O)c2ccccc2F)C(C)C)cc1 | -3.6 | -1.4 | -2.1
CN(C)C(=O)[C@@H]1[C@@H](CO)[C@@H]2Cn3c(ccc(-c4cncnc4)c3=O)[C@H]1N2C(=O)NC1CCCC1 | 2.8 | -0.3 | 3.1
COc1ccc(S(=O)(=O)N[C@H]2C=C[C@H](CC(=O)NCc3ccccc3F)O[C@H]2CO)cc1 | 1.2 | -3.4 | 4.5
COc1ccccc1NC(=O)N1CCCCN2[C@H](CO)[C@H](c3ccc(-c4cccc(F)c4)cc3)[C@H]2C1 | ? | . | .
CC(C)NC(=O)Nc1ccc2c(c1)C(=O)N(C)[C@H]1CC[C@H](CC(=O)NCc3ccc(F)cc3)O[C@@H]1CO2 | -0.5 | 0.2 | -0.7
O=C(C[C@H]1CC[C@@H]2[C@H](COC[C@@H](O)CN2C(=O)Nc2cccc(Cl)c2)O1)N1CCCCC1 | -2.0 | -5.0 | 3.1
CO[C@@H]1CN(C)C(=O)c2ccc(NC(=O)C3CC3)cc2OC[C@H](C)N(C(C)=O)C[C@H]1C | -4.2 | -7.0 | 2.8
O=C(Cc1ccccn1)N1CC(=O)N2[C@H](CO)[C@@H](c3ccc(C#CC4CC4)cc3)[C@H]2C1 | 3.1 | 1.2 | 1.9
CCS(=O)(=O)Nc1ccc2c(c1)C(=O)N(C)[C@@H]1CC[C@@H](CC(=O)NCCCN3CCOCC3)O[C@H]1CO2 | 3.2 | 1.7 | 1.5
CCCC(O)C#Cc1cnc2c(c1)C(=O)N([C@H](C)CO)C[C@H](C)[C@H](CN(C)S(=O)(=O)c1ccc(C#N)cc1)O2 (some centres not stated) | -1.7 | -5.1 | 3.3
O=C(C1CCOCC1)N1CC2(C1)[C@@H](c1ccccc1)[C@H](CO)N2Cc1ccccc1F | 7.0 | 2.0 | 5.0
C[C@@H]1CN([C@@H](C)CO)C(=O)Cc2cc(NC(=O)CCCN(C)C)ccc2O[C@@H]1CN(C)C | 1.2 | -3.9 | 5.2
O=C(C[C@H]1C[C@H]2c3cc(NS(=O)(=O)c4ccc(F)cc4)ccc3O[C@H]2[C@@H](CO)O1)N1CCCCC1 | 1.0 | 0.7 | 0.3
O=C(C[C@H]1CC[C@H](NC(=O)Nc2ccccc2F)[C@H](CO)O1)NCc1ccc(Cl)cc1 | 3.1 | -0.2 | 3.4
COc1ccc2c3c(n(C)c2c1)[C@@H](CO)N(C(=O)Nc1ccccc1F)CC31CN(C(=O)c2ccccc2F)C1 | ? | . | .
COc1ccccc1-c1ccc2c(c1)O[C@H](CN(C)CC1CCOCC1)[C@H](C)CN([C@H](C)CO)S2(=O)=O | 1.3 | 0.4 | 0.9
CS(=O)(=O)N1CC(=O)N2[C@@H](CO)[C@H](c3ccc(C#CCc4ccccc4)cc3)[C@@H]2C1 | -0.4 | -2.8 | 2.4
CCCNC(=O)C[C@@H]1CC[C@@H]2[C@@H](COc3ccc(NC(=O)c4ccc(Cl)cc4)cc3C(=O)N2C)O1 | -5.1 | -5.8 | 0.8
O=C(C[C@@H]1C[C@H]2c3cc(NC(=O)CC4CC4)ccc3O[C@H]2[C@@H](CO)O1)NCc1ccccn1 | 9.0 | 6.3 | 2.7
C/C=C/c1ccc(C2[C@H]3CNC[C@@H]2N3S(=O)(=O)c2c(C)noc2C)cc1 (some centres not stated) | 23.7 | 17.1 | 6.6
COc1cccc(NC(=O)N(C)C[C@H]2Oc3cc(-c4cccc(C(=O)N(C)C)c4)ccc3S(=O)(=O)N([C@@H](C)CO)C[C@@H]2C)c1 | 1.6 | 18.4 | -16.8
COc1cccc(S(=O)(=O)N[C@@H]2C=C[C@@H](CC(=O)NCc3ccncc3)O[C@H]2CO)c1 | 2.7 | 1.9 | 0.8
C[C@H](NC(=O)[C@@H]1[C@@H](CO)[C@@H]2Cn3c(ccc(-c4ccncc4)c3=O)[C@H]1N2C)c1ccccc1 | -2.2 | -1.4 | -0.8
O=C(NC1Cc2ccccc2C1)[C@@H]1[C@@H](CO)[C@@H]2Cn3c(cccc3=O)[C@@H]2N1C(=O)c1cnccn1 | 11.3 | 12.2 | -0.9
O=C(CN1CCOCC1)N[C@@H]1CC[C@@H](CCn2cc(C3CC3)nn2)O[C@@H]1CO | 1.3 | 1.5 | -0.2
Cc1ccccc1S(=O)(=O)N1CC[C@@H]2[C@H]1c1cc(C#Cc3ccccc3)ccc1N[C@@H]2CO | 7.3 | 7.3 | -0.1
O=C(NCC(F)(F)F)[C@@H]1[C@@H](CO)[C@@H]2Cn3c(cccc3=O)[C@@H]2N1C(=O)C1CCC1 | 5.1 | 5.1 | -0.1
COc1ccccc1NC(=O)N[C@@H]1CC[C@@H](CC(=O)N[C@@H](C)c2ccccc2)O[C@@H]1CO | 3.2 | -0.6 | 3.8
CCC(=O)N1[C@H](CNC(=O)COC)[C@@H](c2ccc(-c3ccccc3)cc2)[C@@H]1CO | -1.3 | 0.0 | -1.3
N#C[C@@H]1[C@H](c2ccccc2-c2ccccc2F)[C@H](CO)N1C(=O)c1cccc(F)c1 | -3.7 | 4.4 | -8.1
OC[C@H]1[C@@H](c2ccccc2)C2(CN(Cc3nccs3)C2)N1CC1CCOCC1 | 7.7 | 2.7 | 5.0
O=C(Nc1ccc(C(F)(F)F)cc1)N[C@@H]1C=C[C@H](CC(=O)N2CCCCC2)O[C@H]1CO | 0.9 | 4.8 | -3.9
C/C=C/c1ccc([C@H]2[C@@H](CO)N3C(=O)CN(S(=O)(=O)c4ccccc4)C[C@@H]23)cc1 | ? | . | .
COc1ccccc1-c1ccc([C@@H]2[C@H](C#N)N[C@@H]2CO)cc1 | 0.9 | 0.2 | 0.7
O=C(N[C@@H]1CC[C@@H](CCn2cc(-c3ccccc3F)nn2)O[C@@H]1CO)c1ccc2c(c1)OCO2 | -1.4 | -3.9 | 2.5
C[C@H]1CN([C@@H](C)CO)S(=O)(=O)c2ccc(C#CC3CCCC3)cc2O[C@H]1CN(C)Cc1ccccc1C(=O)O | 3.1 | -0.3 | 3.4
CCC(=O)N1[C@@H](CO)[C@@H]2c3ccccc3N(C(=O)c3ccccc3F)C[C@@H]21 | -0.3 | 0.7 | -1.0

Record cards (already shown). Order of screens: DUX4 inh | DUX4 inh difference | DUX4 inh control
Listed for C[C@H](NC(=O)[C@@H]1[C@@H](CO)[C@@H]2Cn3c(ccc(-c4ccncc4)c3=O)[C@H]1N2C)c1ccccc1 → -2.2 | -1.4 | -0.8
Listed for CCC(=O)N1[C@H](CNC(=O)COC)[C@@H](c2ccc(-c3ccccc3)cc2)[C@@H]1CO → -1.3 | 0.0 | -1.3
Listed for COc1ccccc1-c1ccc([C@@H]2[C@H](C#N)N[C@@H]2CO)cc1 → 0.9 | 0.2 | 0.7

Five structures out of the list, arranged by SMILES length, smallest number first.
SMILES | DUX4 inh | DUX4 inh difference | DUX4 inh control
COc1cccc(S(=O)(=O)N[C@@H]2C=C[C@@H](CC(=O)NCc3ccncc3)O[C@H]2CO)c1 | 2.7 | 1.9 | 0.8
COc1ccccc1-c1ccc([C@@H]2[C@H]3CN(C(=O)CN4CCOCC4)CCCCN3[C@H]2CO)cc1 | 14.1 | 13.5 | 0.6
O=C(N[C@@H]1CC[C@@H](CCn2cc(-c3ccccc3F)nn2)O[C@@H]1CO)c1ccc2c(c1)OCO2 | -1.4 | -3.9 | 2.5
O=C(Nc1ccc(F)cc1)N1CCCCN2[C@H](CO)[C@H](c3ccc(-c4cccc(F)c4)cc3)[C@@H]2C1 | ? | . | .
CN(C)C(=O)[C@@H]1[C@@H](CO)[C@@H]2Cn3c(ccc(-c4cncnc4)c3=O)[C@H]1N2C(=O)NC1CCCC1 | 2.8 | -0.3 | 3.1

Other entries
SMILES | DUX4 inh | DUX4 inh difference | DUX4 inh control
COc1ccc2c3c(n(C)c2c1)[C@@H](CO)N(C(=O)C1CCOCC1)CC31CCN(C)CC1 | -2.0 | 5.4 | -7.4
COc1ccc(S(=O)(=O)N2CC[C@@H]3[C@@H](CO)Nc4ccc(C5=CCCCC5)cc4[C@@H]32)cc1 | ? | . | .
O=C(C[C@H]1C=C[C@@H](NC(=O)CN2CCOCC2)[C@H](CO)O1)NCc1cccc(F)c1 | -3.7 | -3.0 | -0.7
C[C@H](CO)N1C[C@H](C)[C@H](CN(C)C(=O)Nc2ccccc2C(F)(F)F)OCc2ccccc2-c2c(n(C)c3ccccc23)C1=O | ? | . | .
CN(C)CC#Cc1ccc([C@H]2[C@H]3CN(CC4CCOCC4)CCCCN3[C@H]2CO)cc1 | 28.4 | 19.5 | 8.8
COc1cccc(C(=O)N2C[C@@H]3[C@H](c4ccccc42)[C@@H](CO)N3Cc2ccccc2Cl)c1 | 0.2 | -0.5 | 0.8
C[C@H]1CN([C@@H](C)CO)S(=O)(=O)c2ccc(/C=C/c3ccccc3)cc2O[C@@H]1CN(C)C(=O)c1ccc2c(c1)OCO2 | 2.7 | 4.3 | -1.5
COCC(=O)N1C[C@H]2[C@@H](c3ccccc31)[C@H](CO)N2C(=O)C1CCOCC1 | 3.7 | -1.8 | 5.5
O=C(Nc1ccccc1)[C@H]1[C@H](CO)[C@H]2Cn3c(ccc(C4=CCCCC4)c3=O)[C@H]2N1Cc1cocn1 | 4.9 | 7.8 | -2.9
CC=Cc1ccc2n(c1=O)C[C@@H]1[C@@H](CO)[C@H](C(=O)N3CCN(C)CC3)N(Cc3ccccc3F)[C@H]21 (mixture of isomers) | -5.9 | -6.1 | 0.2
COc1ccccc1CN(C)C[C@@H]1OCc2ccccc2-c2c(n(C)c3ccccc23)C(=O)N([C@H](C)CO)C[C@H]1C | ? | . | .
O=C(C[C@H]1CC[C@@H](NC(=O)CN2CCOCC2)[C@@H](CO)O1)NC1CCC1 | 4.2 | 0.8 | 3.4
COc1ccccc1-c1ccc2c(c1)[C@@H]1[C@@H](CCN1S(=O)(=O)c1ccc(C)cc1)[C@H](CO)N2 | ? | . | .
O=C(NCC1CCCCC1)[C@H]1[C@H](CO)[C@H]2Cn3c(ccc(-c4ccc(F)cc4)c3=O)[C@@H]1N2 | -1.7 | 1.0 | -2.7
O=C(C[C@H]1CC[C@@H]2[C@H](COC[C@H](O)CN2Cc2ccc3c(c2)OCO3)O1)Nc1ccc(-c2ccccc2)cc1 | ? | . | .

From PubChem BioAssay
